Source: PubChem BioAssay
GIV Gai3 FP: inhibitors of GIV GBA-motif binding to rat Galpha-i3; P08753; Galpha-i3/FITC-GIV peptide fluorescence polarization, 90 min; active compounds read low; scaled: aluminum fluoride 0%, vehicle 100%; percent of control (FP), % (no concentration beside the values); 210,000 tested, 0.42% active;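 active = replicate mean at 85% of control or lower, very high polarization wells dropped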;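 note: wells of about 15 µL received 100 nL stock; the first replicate is given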
Target sequence (P08753 whole entry, looked up): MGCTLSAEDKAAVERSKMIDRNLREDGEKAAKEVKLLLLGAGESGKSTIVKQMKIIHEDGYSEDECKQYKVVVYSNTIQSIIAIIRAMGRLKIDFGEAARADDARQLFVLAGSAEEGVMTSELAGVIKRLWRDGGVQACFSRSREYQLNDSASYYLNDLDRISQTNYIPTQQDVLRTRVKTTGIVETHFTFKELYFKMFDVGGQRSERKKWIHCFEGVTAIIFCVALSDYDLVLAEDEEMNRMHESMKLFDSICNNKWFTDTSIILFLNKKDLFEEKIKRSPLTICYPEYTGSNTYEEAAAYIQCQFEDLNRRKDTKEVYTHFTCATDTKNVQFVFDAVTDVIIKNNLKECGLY
Sa growth 42C: blocks Staphylococcus aureus growth; S. aureus RN4220 growth, OD600, 20 h, 42 °C; active compounds read low; relative growth, % (test concentration not listed); AID 720641; 170,000 tested, 0.53% active;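 active = growth at 42 °C up to 50% and 20 or more points under that at 30 °C, or under 10% at both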;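 note: 300 nL library stock went into each well; scaled to the means of positive and negative controls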
HCMV UL50-53 inh: cytomegalovirus nuclear egress complex inhibition | HTRF UL50-UL53 interaction, normalized percent inhibition | inhibition, % (concentration not given with the values) | 190,000 tested, 0.15% active;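 active = both replicates at 50% or more, plus weaker picks with an unusually low signal ratio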;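 note: stock transfer was 100 nL into about 20 µL; 0% = negative control wells and 100% = wells with untagged competitor protein; inactives centre near -12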
Sa growth 42C second temp: also measured in Sa growth 42C; calls as there; relative growth, %; measured here: growth at 30 °C;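 optical density after 20 h as mean of two plates; 100% = untreated growth and lower means inhibition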
Starred values were filed as active, the others as inactive; . = no result given; & = joins results of further samples. The order is random, and some 0.79% of all compounds hit somewhere here.

SMILES | GIV Gai3 FP | Sa growth 42C | Sa growth 42C second temp | HCMV UL50-53 inh
CCCn1c(SCC(O)c2cccc(OC)c2)nc2ccccc21 (stereo unspecified) | 103 | 101 | 89 | -34
CCOCCCNC(=O)C1CCCN(c2ccnc(-c3ccc(F)cc3)n2)C1 (stereo unspecified) | 108 | . | . | -23
COc1cc(C(CC(=O)Nc2cccc(C(C)=O)c2)N2Cc3ccccc3C2=O)cc(OC)c1OC (stereo unspecified) | 105 | 102 | 69 | .
CCCCC(=O)Nc1ccc(NCc2ccc(C)s2)cc1 | 123 | 83 | 87 | .
Cc1ccc(CNC(=O)c2ccccc2N)cc1 | . | 69 | 91 | -4
Cc1ccc(CNC(=O)c2ccc(N3CC(C)Sc4ccccc43)s2)o1 (stereo unspecified) | 100 | 96 | 85 | -29
Cc1nnc(C)n1N(C)C | . | 106 | 100 | 12
O=C(CSc1nnc(-c2ccc(Cl)cc2)o1)NC1CCSc2ccccc21 (stereo unspecified) | . | 91 | 93 | 0
CC(C)(C)C(=O)CC(C)(O)c1ccc(Cl)cc1 (stereo unspecified) | 102 | 88 | 82 | -24
NC1=NC(=O)/C(=C\c2ccccc2OCc2ccccc2F)S1 | . | 85 | 75 | 4
COc1cccc(C(=O)N2CCN(CCc3ccncc3)CC2)c1 | 102&98 | 110 | 93 | 4&5
CNC(=S)N/N=C(\C)c1ccccc1OC | . | 108 | 94 | 4
CCN(CC)CCNC(=O)c1cc(Nc2ccc(OC)c(OC)c2)nc2ccccc12 | 100 | . | . | -16
c1ccc(-c2cn3nc(C4CCCCC4)sc3n2)cc1 | 102 | 104 | 94 | -15
O=S1(=O)CC(O)C(NCc2ccccc2)C1 (stereo unspecified) | 98 | . | . | -5
CCOc1ccc(NS(=O)(=O)c2ccc(-c3cc(C)no3)s2)cc1 | 99 | 84 | 93 | .
O=C(COc1ccccc1)Oc1cc(-c2ccccc2)c2oc(=O)sc2c1 | 113 | 76 | 50 | .
CC(=O)N1CCc2c(sc3c2c(=O)n(Cc2ccccc2)c(=O)n3Cc2cccc(Cl)c2)C1 | 98 | 119 | 82 | -11
COc1ccc(NC(=O)CSCc2cnn(-c3ccccc3)c2-n2cccc2)cc1 | 102 | 98 | 81 | 13
Cc1ccc(N2CC(NC(=O)C3CC3)CC2=O)cc1C (stereo unspecified) | 99 | 112 | 83 | .
O=C(CSCc1ccccc1)Nc1ccc2c(c1)OCO2 | . | 96 | 81 | -12
CNC(=S)Nc1ccc(OC)c(OC)c1 | 100 | 104 | 71 | -2
Cc1ccc(NC(=O)C(C)NC(=O)C(c2ccccc2)c2ccccc2)cc1C (stereo unspecified) | 101 | 100 | 83 | -30
CC(COc1ccc(C(C)C)cc1)NS(=O)c1ccc2ccccc2c1 (stereo unspecified) | . | 129 | 70 | -9
O=c1c2oc3ccccc3c2n(Cc2ccccc2Cl)c(=O)n1Cc1ccc2c(c1)OCO2 | 100 | 89 | 83 | .

Of the compounds above, three have two or more sulfur atoms.
SMILES | GIV Gai3 FP | Sa growth 42C | Sa growth 42C second temp | HCMV UL50-53 inh
Cc1ccc(CNC(=O)c2ccc(N3CC(C)Sc4ccccc43)s2)o1 (stereo unspecified) | 100 | 96 | 85 | -29
O=C(CSc1nnc(-c2ccc(Cl)cc2)o1)NC1CCSc2ccccc21 (stereo unspecified) | . | 91 | 93 | 0
CCOc1ccc(NS(=O)(=O)c2ccc(-c3cc(C)no3)s2)cc1 | 99 | 84 | 93 | .

(next part)
SMILES | GIV Gai3 FP | Sa growth 42C | Sa growth 42C second temp | HCMV UL50-53 inh
Cc1nc2cc(C(=O)OC(C)C(=O)N3CCOCC3)ccc2n1-c1ccccc1 (stereo unspecified) | . | 79 | 92 | -27
COc1ccccc1-n1c2nc3ccccc3nc2c2c(=O)n(C3CCCC3)cnc21 | 105 | 99 | 104 | -55
Cc1nn(C(C)C)c(C)c1-c1cc(C(=O)O)[nH]n1 | 105 | . | . | -18
CC(=O)n1nc(C)c(Sc2ccc(C(F)(F)F)cn2)c1C | 101 | 117 | 88 | 0
CCN(CC)/C(C)=N/C(=S)Nc1ccccc1 | . | 112 | 97 | -32
CN1/C(=C(\C#N)C(=O)CSc2nnc(-c3ccc(Cl)cc3)o2)Sc2ccccc21 | . | 84 | 86 | 15
CN(CC(=O)Nc1ccc(F)cc1)C(=O)Cn1nnc(-c2ccccc2)n1 | . | 84 | 97 | -18
O=C1NC(=O)C(=Cc2ccc(N3CCCC3)o2)C(=O)N1 | 272 | 124 | 99 | -98
CCCCN(CCCC)C(=O)C1CCN(S(=O)(=O)c2c(C)noc2/C=C\c2ccc(OC)cc2)CC1 | 98 | . | . | -30
NC(=S)c1ccc(O)cc1 | . | 90 | 97 | -10
O=c1c(-c2cc(-c3ccc(Cl)cc3)nc3c2COc2ccccc2-3)coc2ccccc12 | 101 | 100 | 101 | -4
O=C(CNS(=O)(=O)c1ccccc1)Nc1c(-c2ccccc2)c2cc(Br)ccc2[nH]c1=O | 110 | 95 | 101 | 8
CCOCCCNC(=O)C1c2c(n(C)c3ccccc23)SCC(=O)N1CCOC (stereo unspecified) | 103 | . | . | 9
CCOC(=O)N1CCC(NC(=O)c2cc3c(s2)CS(=O)(=O)C3)CC1 | 98 | 83 | 92 | 4
CCCCN1C(=O)C(O)(c2c(C)[nH]c3ccccc23)c2cc(Br)ccc21 (stereo unspecified) | 106 | 79 | 63 | -18
CCOc1ccccc1NC(=O)CN1C(=O)CC(c2ccco2)Sc2ccccc21 (stereo unspecified) | 105 | 116 | 88 | -31
Cc1ccc(NC(=O)N2CCN(Cc3ccc4nccnc4c3)CC2)cc1Cl | 101 | . | . | -17
COc1cccc2cc(C(=O)Nc3ccc(C)cc3)c(=O)oc12 | 105 | 104 | 84 | -55
O=C(NC(NC1CCCCC1)(C(F)(F)F)C(F)(F)F)c1ccccc1 | 99 | 100 | 92 | -21
Cc1ccc(C)c(NC(=O)c2cc3c([nH]c2=O)CCCC3=O)c1 | 111 | . | . | -28
Cc1[nH]c(C)c(S(=O)(=O)N2CCC(C(=O)NC3CC3)CC2)c1C(=O)N1CCCCC1 | 104 | . | . | -25
O=C(NC1CCCCC1)NC1CCN(Cc2nnnn2Cc2ccco2)CC1 | 97 | 82 | 88 | 2
CCOC(=O)CNC(=O)Cn1nc(N2CCN(c3ccccc3)CC2)ccc1=O | 104 | 82 | 95 | .
CCOC(=O)C1CCN(Cn2c(=S)oc3ccc(S(=O)(=O)CC)cc32)CC1 | . | 101 | 92 | -34
CCN1C(C(=O)c2ccccc2)=C(OC(=O)C(C)(C)C)c2ccccc2S1(=O)=O | 97 | . | . | -4
(more compounds)
SMILES | GIV Gai3 FP | Sa growth 42C | Sa growth 42C second temp | HCMV UL50-53 inh
CC(C)(C)OC(=O)N1CCC[C@H]1C(=O)Nc1ccc(C#N)cc1 | . | 71 | 90 | -27
CCn1cnc2cc(NCc3nc4ccccc4n3C)ccc21 | 98 | . | . | -39
COc1ccc(OC)c(NC(=O)C(Cc2ccccc2)NS(=O)(=O)c2cccc3nsnc23)c1 (stereo unspecified) | 99 | 102 | 93 | -27
O=C(NC1CCCCC1)c1nc2ccccc2c(=O)[nH]1 | 99 | . | . | -19
CCC(O)(CC)C12CC3CC(CC(C3)C1)C2 | 106 | 102 | 88 | .
Cc1ccc(F)cc1S(=O)(=O)N1CCC(c2nc3ccccc3s2)CC1 | 99 | 99 | 97 | 1
CN1CCC(=NNC(=O)c2ccc(CN(c3ccccc3)S(C)(=O)=O)cc2)CC1 | 99 | 87 | 87 | -14
CCCN(C(=O)Cn1ncc2c([nH]c3ccc(C)cc32)c1=O)c1ccccc1C | 110 | 87 | 91 | .
CCc1cc(C(=O)O)c(NC(=O)c2ccc(Br)cc2)s1 | . | 100 | 90 | 10
Cc1ccc(OCC(=O)Nc2nnc(S(=O)(=O)N3c4ccccc4CC3C)s2)cc1 (stereo unspecified) | 104 | 132 | 79 | 1
CSC1=NN(C)c2cnn(C)c(=O)c2S1 | 100 | 101 | 101 | -65
CCCCSc1nn(C)c2nc3c(c(=O)n12)C(C)(C)Cc1ccccc1-3 | 107 | . | . | -31
CCCC(=O)CC(c1ccccc1)C1C(=O)c2ccccc2C1=O (stereo unspecified) | . | 105 | 102 | -47
Cc1ccc(S(=O)(=O)N2CCCc3cc(NC(=O)c4ccc(F)c(F)c4)ccc32)cc1 | 99 | 80 | 92 | .
Nc1nc(SCC(=O)Nc2ccc3c(c2)OCO3)n[nH]1 | . | 75 | 87 | -10
Cc1c(C)n(C(=O)CSc2ccc(Cl)cc2)c2ccccc12 | 101 | 92 | 89 | .
CCN(CC)CCNC(=O)c1nnc(-c2oc3ccc(C)cc3c2C)o1 | 108 | . | . | -68
CCN(CC)c1cc2c(cc1F)c(=O)c(S(=O)(=O)c1ccc(C)cc1)cn2Cc1ccc(F)cc1 | 112 | 112 | 92 | .
COC(=O)c1c[nH]n2c(=O)c(Cc3ccc(C)cc3)c(C)nc12 | 104 | 113 | 92 | -24
Cc1cc(SC/C(O)=C(\C#N)c2nc3ccccc3[nH]2)nc2ccccc12 | . | 90 | 90 | -28
CC(=O)Nc1ccc(NC2CCCCC2NS(=O)(=O)c2ccc(Cl)cc2)cc1 (stereo unspecified) | 101 | 92 | 73 | -10
O=C(c1nc2n(n1)C(c1ccc(Cl)cc1)C=C(c1ccccc1)N2)N1CCOCC1 (stereo unspecified) | 100 | 82 | 62 | -38
CN1CCN(C(=S)SCC(=O)Nc2nc(=O)c3ccccc3s2)CC1 | 98 | 111 | 102 | .
Cc1cc(-c2onc(C)c2C(N)=O)no1 | 102 | 100 | 96 | -4
CC1=NOC(=O)C1C(c1cccc(Br)c1)c1c(C)[nH]n(-c2ccccc2)c1=O (stereo unspecified) | 48* | 78 | 47 | 60*

Entries of single compounds as entered above:
`CC(COc1ccc(C(C)C)cc1)NS(=O)c1ccc2ccccc2c1` (stereo unspecified) in the list: GIV Gai3 FP = .; Sa growth 42C = 129; Sa growth 42C second temp = 70; HCMV UL50-53 inh = -9
`CCOC(=O)C1CCN(Cn2c(=S)oc3ccc(S(=O)(=O)CC)cc32)CC1` in the list: GIV Gai3 FP = .; Sa growth 42C = 101; Sa growth 42C second temp = 92; HCMV UL50-53 inh = -34
`Cc1ccc(F)cc1S(=O)(=O)N1CCC(c2nc3ccccc3s2)CC1` in the list: GIV Gai3 FP = 99; Sa growth 42C = 99; Sa growth 42C second temp = 97; HCMV UL50-53 inh = 1

More structures.
SMILES | GIV Gai3 FP | Sa growth 42C | Sa growth 42C second temp | HCMV UL50-53 inh
Cc1nc2c(-c3ccccc3)c(C)nn2c(C)c1CCC(=O)NCCN1CCCC1 | 106 | 122 | 87 | 0
CN(C)CCCNc1nnc(Cc2ccccc2)c2ccccc12 | 105 | . | . | -7
Cc1ccc(CN(C)S(=O)(=O)c2ccc(C(=O)NCC(F)(F)F)cc2)o1 | . | 105 | 83 | -13
COc1ccc(NC(=O)c2ccc(C)o2)cc1Cl | 98 | 99 | 103 | 11
CCOC(=O)c1c(NC(=O)c2ccc(Cl)c([N+](=O)[O-])c2)sc(C(=O)Nc2ccc(OC)cc2)c1C | 101 | . | . | -30
CS/C(=C\C(=O)c1cccs1)NCc1ccco1 | 105 | 84 | 89 | -6
COc1ccc(C(CNC(=S)NCc2ccco2)N2CCCCC2)cc1 (stereo unspecified) | . | 86 | 91 | -13
CCNC(=O)c1sc(-c2ccccc2)nc1C | . | 117 | 85 | -23
Cc1cc2c(=O)n(-c3ccccc3)c(=S)[nH]c2s1 | 103 | . | . | -2
CNC(=O)c1cc(S(=O)(=O)N2CCCc3ccccc32)ccc1C | 106 | 91 | 97 | 7
Cn1ncc2c(=O)n(CC(=O)c3ccccc3)cnc21 | 101&103 | 84 | 91 | -4
C/C(N)=C(/C#N)C(=O)CSc1nc2ccccc2c(=O)[nH]1 | . | 70 | 83 | -23
O=C(/C=C/NCc1ccccc1)C(F)(F)F | . | 92 | 92 | -3
O=C(Nc1ccccc1Cl)Nc1cc(NC(=O)c2ccccc2Cl)ccc1N1CCCCC1 | 103 | . | . | -17
CCc1ccc(CNCc2c(C(=O)O)n(Cc3cccc(F)c3)c3cc(OC)ccc23)cc1 | 103 | 111 | 94 | .
O=C(Cn1ncc2c(=O)oc3ccccc3c21)NCCc1ccsc1 | 105 | 88 | 91 | 7
CCSc1nnc(NC(=O)c2cc(=O)c3cc(C)ccc3o2)s1 | 106 | 102 | 84 | -24
CCCCn1c(SCC(=O)c2ccc(OC)cc2OC)nc2cc(S(N)(=O)=O)ccc21 | . | 59 | 98 | -27
CCC1(C)Cc2nc3nc(SCC(=O)c4ccccc4)n(Cc4ccccc4)c(=O)c3cc2CO1 (stereo unspecified) | 102 | 109 | 91 | .
CCCC(=O)Nc1cc(C(=O)NC2CCCC2)ccc1S(=O)(=O)c1ccc(Cl)cc1 | 101 | 107 | 85 | 4
Cc1ccc(S(=O)(=O)CC(=O)Nc2cc(Cl)ccc2N2CCOCC2)cc1 | 102 | 109 | 85 | -13
CCOC(=O)c1cc(NC(=O)c2ccc(C)cc2Cl)ccc1N1CCOCC1 | 98 | . | . | -3
CCOC(=O)c1ccccc1NC(=O)c1nn(-c2ccc(F)cc2)c(=O)cc1OC | 105 | . | . | -15
Cc1ccc(C(=O)NCc2ccccn2)cc1NC1=NC2CS(=O)(=O)CC2S1 (stereo unspecified) | 103 | . | . | -16
CN(C(=O)/C=C/c1ccco1)c1c(N)n(Cc2ccccc2)c(=O)[nH]c1=O | . | 80 | 84 | -38
